Assay outcomes as filed in PubChem BioAssay.
miR-21 reporter – qHTS Assay for Modulators of miRNAs and/orActivators of miR-21; HeLa miR-21 FLuc reporter, luciferase, 48 h; Potency, µM (highest dose often 38.3 µM), for the others: at the highest dose reporter change, positive = more light; 340,000 tested, under 10 active; AID 2288, 2010; active = well fitted rising curve with a large enough effect; inconclusive = small, poorly fitted or top-dose-only effect; inactive = no such curve, though single readings can be large or run the other way;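 further: % of control where 0% means no effect; miR-21 action dims this reporter so a rising signal means less miR-21 action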
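HeLa cells stably expressing CMV-driven firefly luciferase with a downstream miR-21 binding sequence, endogenously expressing miR-21, were treated with titrations (up to about 40uM final) for 48 hours at 37 degree Celsius. Luciferase luminescence was read after lysis.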
GLA inh pH 4.5 – qHTS Assay for Inhibitors of Human alpha-Galactosidase at pH 4.5. purified enzyme, 4-MU-alpha-Gal fluorescence, pH 4.5. activity change, negative = inhibition, % at 105 µM. 230,000 tested, under 10 active. Alpha-galactosidase A (Homo sapiens), P06280; inconclusive = small, poorly fitted or top-dose-only inhibition, or a rising curve; inactive = flat fitted curve, though single readings scatter; no compound was filed as active;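 further: 0% = full activity with enzyme and -100% = basal without enzyme; dose as in the result columns while the protocol names 77 µM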
Target sequence (P06280 whole entry, looked up): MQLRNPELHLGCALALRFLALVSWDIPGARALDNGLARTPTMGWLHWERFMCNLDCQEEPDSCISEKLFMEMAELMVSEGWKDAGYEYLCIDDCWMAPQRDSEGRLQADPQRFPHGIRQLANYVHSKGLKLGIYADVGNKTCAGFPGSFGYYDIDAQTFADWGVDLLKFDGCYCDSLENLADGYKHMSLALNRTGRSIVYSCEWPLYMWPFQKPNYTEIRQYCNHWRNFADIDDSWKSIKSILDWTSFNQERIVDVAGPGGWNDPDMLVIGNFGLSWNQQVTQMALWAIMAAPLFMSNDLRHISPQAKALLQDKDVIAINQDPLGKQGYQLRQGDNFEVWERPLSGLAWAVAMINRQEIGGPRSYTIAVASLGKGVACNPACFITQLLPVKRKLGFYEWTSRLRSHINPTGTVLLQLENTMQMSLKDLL
Rango dissoc inh – qHTS Assay for Inhibitors of RanGTP induced Rango (Ran-regulated importin-beta cargo) - Importin beta complex dissociation; Snurportin-1 (Homo sapiens) + GTP-binding nuclear protein Ran (Homo sapiens) + Importin …; Biochemical FRET Rango-importin beta, RanGTP-induced dissociation; Potency, µM (series often up to 46.1 µM), for inactives: at the highest dose activity change, negative = inhibition; actives 0.071% (n = 340,000); active means falling FRET ratio curve, often poorly fitted, with flat reads before Ran was added; inconclusive means other falling curves, or compound fluorescence or quenching; inactive means flat or rising ratio curve;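 further: potency means the concentration at half of the fitted maximal effect; % of control where 0% means no effect; nearly all actives have a fitted effect of over 45% in size; -100% = wells without RanGTP and RCC1; the record marks most hits as doubtful in a second field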
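Quantitative HTS using a FRET biosensor: 0.1 uM Rango, 0.25 uM importin beta, 0.6 uM Ran, 2 mM GTP, 0.2 uM RCC1 final, PBS with DTT, Tween-20 and BSA. Post-read taken 45 min after Ran addition.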
Rango complex inh – qHTS Assay for Inhibitors of Rango (Ran-regulated importin-beta cargo) - Importin beta complex formation; Importin subunit beta-1 (Homo sapiens), Q14974; Rango CFP/YFP FRET sensor + importin beta, 45 min; Potency, µM (highest dose often 92.2 µM), for inactives: at the top dose inhibition of complex formation; actives 0.031% (n = 340,000); AID 540263, 2011; active = rising FRET ratio curve, often small or poorly fitted; inconclusive = mostly compound fluorescence or quenching in the first reads; inactive = flat curves in all reads;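 further: potency means the concentration at half of the fitted maximal effect; 0% = DMSO wells and 100% = buffer wells lacking importin beta; nearly all actives have a fitted effect of over 15% in size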
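Inhibition scored from the CFP 486 nm/YFP 530 nm FRET ratio 45 min after adding 0.125 microM importin beta to 50 nM Rango biosensor preincubated 5 min with compound (room temperature, PBS with DTT, Tween-20, BSA). No-importin wells as positive control.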
* hit, by the source's call; ? = inconclusive; nt = no result given; & = joins results of further samples. A portion of the library, so the mix of outcomes need not match the whole.

cpd	miR-21 reporter	GLA inh pH 4.5	Rango dissoc inh	Rango complex inh	compound
1	7%	5	9%	6.5%	CC(C)c1c(O)nc(SCC(=O)Nc2ccc3c(c2)CCC3)[nH]c1=O
2	0%	nt	1%	1.1%	CC1CCC2C(=O)N(c3cccc(C(=O)Nc4ccc(F)cc4)c3)C(=O)C2C1 (stereo not given)
3	3%	4	12%	-2.7%	COc1cc(C(=O)NC(=S)Nc2cccc3nc(C)ccc23)cc(OC)c1OC
4	-1%	-12	6%	0.3%	C[C@@H](O)C1NC(=O)[C@H](CCCCN)NC(=O)c2cc([N+](=O)[O-])cc(I)c2OCC[C@@H](C(N)=O)NC1=O (stereo not given in full)
5	-13%	-2	-6%	-0.4%	Cc1cc(C)c2c(CN3CCOCC3)cc(=O)oc2c1C
6	-16%	0	-8%	1.6%	N#CC1=C(N)N(c2ccccc2)C(c2cccc([N+](=O)[O-])c2)C1(C#N)C#N (stereo not given)
7	nt	nt	0%	-1.4%	Cc1cc(C)cc(-c2nnc(SCC(=O)NCC3CCCO3)o2)c1 (stereo not given)
8	-14%&1%	nt	-9%	2.2%	Cc1cccc(C(=O)Nc2nnc(S(=O)(=O)N(C)Cc3ccco3)s2)c1
9	-8%	5	1%	0.1%	C=CC[n+]1c(C)csc1Nc1cccc(Br)c1
10	-33%	nt	12%	0.2%	CC(=O)Nc1ccc(NC(=S)NC(=O)C2CC2)cc1
11	-10%&5%	nt	-6%	-4.1%	Cc1ccc(NC(=O)Cn2cc(C(=O)C3CC3)c3ccccc32)c(C)c1
12	-10%	3	-3%	-0.7%	Cc1cc(N/N=C/c2ccccc2O)nc(N2CCOCC2)n1
13	-1%	nt	-9%	-1.5%	CCOC(=O)C1=C(C)N(C)C(=O)NC1c1ccc2c(c1)OCO2 (stereo not given)
14	-39%	2	-12%	-3.4%	CCc1ccc(-c2nnn(CCC#N)n2)cc1
15	5%	-9	-12%	-0.9%	O=C(CN1C(=O)NC2(CCOc3ccccc32)C1=O)Nc1cccc(Cl)c1 (stereo not given)
16	nt	nt	3%	-0.9%	CCOC(=O)C1CCN(C(=O)c2cc(CN3C(=O)c4ccccc4C3=O)ccc2OCC)CC1
17	1%	nt	15%	2.2%	Cc1ccc(C(=O)Nc2ccccc2C(=O)NCc2cccnc2)cc1
18	11%	nt	-20%	0.4%	Cc1ccc(S(=O)(=O)Nc2ccc(Nc3ccccc3)cc2)cc1
19	-7%	-2	0%	-0.5%	Cc1ccccc1OCCCCn1cnc2ccccc21
20	-1%	nt	-5%	2.2%	O=C(Cc1ccccc1)N1CCc2[nH]nc(-c3ccccc3)c2C1
21	0%	14	-15%	0.2%	COc1ccccc1C(CC(=O)Nc1ccc(Cl)cc1)c1ccc(OC(C)C)cc1 (stereo not given)
22	0%	5	7%	2.3%	O=C(NCC(=O)N(c1ccc2c(c1)OCO2)C(C(=O)NC1CCCC1)c1cccs1)c1ccco1 (stereo not given)
23	-27%	nt	14%	0.0%	O=C(Nc1cccc2c1CCCC2)c1ccccc1F
24	-39%	1	-8%	-2.0%	c1ccc(N2CCN(c3nc4cc5c(cc4s3)OCO5)CC2)cc1
25	-7%	-4	4%	2.2%	CC(=O)NC1=NN(C(C)=O)C(c2ccccc2)S1 (stereo not given)
26	-1%	nt	1%	0.3%	COc1ccc(CCNC(=O)C2CCN(C(=O)c3ccccc3C)CC2)cc1
27	1%	nt	-13%	2.9%	COc1ccc(OC)c(NC(=O)c2ccc(S(=O)(=O)N3CCOCC3)cc2)c1
28	-1%	0	17%	-0.5%	COC(=O)C(C#N)C(c1cccnc1)c1c(C)[nH][nH]c1=O (stereo not given)
29	-5%	-7	2%	2.5%	O=C(/C=C/c1ccc(F)cc1)c1ccc(N2CCOCC2)cc1
30	-3%	2	-13%	-2.4%	CC(C)(C)NC(=O)c1cc(C(C)(C)C)c(O)c(C(C)(C)C)c1
31	-73%	9	2%	6.0%	COc1ccc(N=c2sc3ccccc3n2C)cc1
32	-1%	0	4%	0.3%	O=C(OCc1ccccc1)C1=NNC2C(=O)N(c3ccccc3)C(=O)C12 (stereo not given)
33	-41%	1	13%	2.0%	Cc1ccc(NC(=O)CSCc2ccco2)cc1
34	-27%	nt	22%	0.4%	O=C(NCc1cccnc1)Nc1ccc(Cl)cc1
35	nt	nt	-2%	3.3%	COc1ccc(/C=C/C(=O)OCC(=O)NC(C)CCc2ccccc2)cc1OC (stereo not given)
36	0%	1	0%	-0.1%	O=C(N/C(=C\c1cccs1)C(=O)N1CCOCC1)c1cccs1
37	-67%	3	-6%	?	Cc1ncc(CO)c(/C=N/N=C/c2ccccc2O)c1O
38	-1%	-2	-8%	1.0%	O=C(NCCc1ccccc1)C1c2ccccc2C(=O)N1C1CC1 (stereo not given)
39	-2%	7	2%	-0.4%	CCN1C(=O)CC(N2CCC(c3nc4ccccc4[nH]3)CC2)C1=O (stereo not given)
40	2%	nt	10%	0.2%	CCOc1ccccc1OC(=O)CN1C(=O)c2ccccc2C1=O
41	nt	nt	-24%	0.2%	CC(=O)Nc1ccc(C(=O)COC(=O)c2cc(C)oc2C)c(F)c1
42	-3%	-16	7%	-3.9%	COc1ccc(C(=O)N2CCOC2CNC(=O)C(=O)NCc2ccco2)cc1 (stereo not given)
43	-8%	nt	0%	-1.9%	COc1cc2ncnc(NCc3ccc(F)cc3)c2cc1OC
44	0%	nt	-4%	-5.2%	Cc1ccc([C@@H]2[C@@H]3C(=O)N(c4ccccc4)C(=O)[C@@H]3[C@]3(C)C(=O)N(Cc4ccccc4)CC(=O)N23)o1
45	-2%	2	-4%	4.0%	O=C(CCc1ccccc1)OCC(=O)c1ccc([N+](=O)[O-])cc1
46	-5%	nt	-3%	-0.2%	COc1ccc(C(CNC(=O)C(Cc2ccccc2)NC(N)=O)N(C)C)cc1 (stereo not given)
47	4%	6	0%	3.3%	COC(=O)Nc1ccc(S(=O)(=O)N2CCC(C(=O)N3CCC(C)CC3)CC2)cc1
48	-7%	-8	?	?	CN(C)c1ccc(C=C(c2nnnn2-c2ccccc2)c2nnnn2-c2ccccc2)cc1
49	-7%	-2	-4%	-1.0%	COC(=O)c1ccc(Cl)c(NC(=O)Cc2ccccc2[N+](=O)[O-])c1
50	3%	-2	-12%	6.9%	COC(=O)/C=c1\sc2n(c1=O)C(C)=CC(C)(C)N=2

Next section.
cpd	miR-21 reporter	GLA inh pH 4.5	Rango dissoc inh	Rango complex inh	compound
51	-2%	-1	nt	nt	O=C(CN1CCCCC1)N1CCN(C(=O)CN2CCCCC2)CC1
52	-4%	0	28%	-3.0%	Nc1cc(=O)[nH]c(SCC(=O)Nc2ccc([N+](=O)[O-])cc2)n1
53	1%	2	10%	-1.5%	CC(C)(C)CN1C(=O)C(=O)NC[C@H]1Cc1ccc(O)cc1
54	0%	nt	1%	?	CCOc1ccc(CCNC(=O)C2CCCN(S(=O)(=O)N3CCOCC3)C2)cc1OCC (stereo not given)
55	-5%	0	-1%	-2.3%	CCOC(=O)C1=C(C)OC(N)=C(C(=O)OCC)C1c1ccncc1 (stereo not given)
56	-1%	nt	2%	0.5%	CC(C)CNS(=O)(=O)c1ccc(C(=O)Nc2ccc3c(c2)OCO3)cc1
57	-21%	8	2%	2.0%	COc1cccc(CN2CCN(C(=O)c3cccs3)CC2)c1OC
58	-7%	-8	4%	-2.8%	CCc1nc2nc(C)cc(Nc3cccc(C(F)(F)F)c3)n2n1
59	-45%	-1	1%	-2.4%	CCCn1cnc2cc(NCc3cccc(OC)c3O)ccc21
60	-52%	0	-12%	-0.1%	O=C(NNC(=O)c1cccc2ccccc12)c1ccc2c(c1)OCO2
61	nt	nt	4%	4.0%	CCN(C[C@H]1N[C@@](Cc2ccccc2)(C(=O)OC)[C@H]2C(=O)N(C)C(=O)[C@@H]12)C(=O)COc1ccccc1
62	0%	7	12%	3.4%	COc1ccccc1NC(=O)COC(=O)c1c[nH]c(=O)[nH]c1=O
63	-2%	-4	24%	-1.1%	Cc1nc2cc(C)c(C)cc2s1
64	-46%	nt	0%	-2.5%	O=C(c1ccccc1)c1c[nH]c2ccccc12
65	-2%	3	-3%	-0.1%	COC(=O)c1sccc1NC(=O)CSCCc1ccncc1
66	nt	nt	1%	3.0%	COC(=O)C[C@H](NC(=O)Cn1cnc2c(OCc3ccccc3)ncnc21)C(=O)OC
67	-5%	-3	-4%	-0.8%	CN(C)S(=O)(=O)Nc1ccc(NS(=O)(=O)N(C)C)c(S(=O)(=O)c2ccccc2)c1
68	-6%	5	?	?	COc1ccc(-c2cc(C(F)(F)F)n3nc(C(=O)NCc4ccco4)cc3n2)cc1OC
69	-4%	nt	-14%	-1.5%	CCCCc1ccc(N2C(=NC(=O)C3CCCO3)SC3CS(=O)(=O)CC32)cc1 (stereo not given)
70	3%	nt	-17%	-1.0%	O=C(c1ccc(CS(=O)Cc2ccc(Cl)cc2)o1)N1CCN(c2ccc(F)cc2)CC1 (stereo not given)
71	0%	nt	-19%	-1.0%	Cc1ccc(C)c(-c2cc(C(=O)NC3CC3)c3ccccc3n2)c1
72	-15%	-9	?	?	NS(=O)(=O)c1ccc(N/C=C\C(=O)c2ccncc2)cc1
73	-22%	2	?	?	Oc1c(Cl)cc(Cl)cc1C=Nc1ccc2c(c1)OCCO2
74	10%	-8	-5%	1.8%	COC(=O)c1ccc(/C=C(\C#N)C(=O)NC(C)c2ccccc2)cc1 (stereo not given)
75	-5%	0	-7%	-5.6%	CC12CCC(C(=O)NCc3ccco3)(OC1=O)C2(C)C (stereo not given)
76	3%	-2	?	-1.1%	O=C(C1=C[C@H](c2ccccc2)C[C@H](OCCCCO)O1)N1CCOCC1
77	1%	nt	-7%	5.8%	COc1ccc(CCN2C(=S)N(c3ccccc3)C(=O)C2CC(=O)O)cc1OC (stereo not given)
